Rango dissoc inh = inhibition of RanGTP-driven Rango-importin beta dissociation; O95149+P62826; Biochemical FRET Rango-importin beta, RanGTP-induced dissociation; Potency, µM (titrated, usually from 46.1 µM), without a hit: at the top dose activity change, negative = inhibition; actives 0.071% (n = 340,000); AID 540253; active means falling FRET ratio curve, often poorly fitted, with flat reads before Ran was added; inconclusive means other falling curves, or compound fluorescence or quenching; inactive means flat or rising ratio curve;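 further: potency means the concentration at half of the fitted maximal effect; % of control where 0% means no effect; nearly all actives have a fitted effect of over 45% in size; -100% = wells without RanGTP and RCC1; the record marks most hits as doubtful in a second field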
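Compounds preincubate 5 min with complex of recombinant Rango and importin beta in PBS with 1 mM DTT. Ran (0.6 uM) loaded with 2 mM GTP plus 0.2 uM RCC1 starts dissociation; FRET is recorded 45 min later.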
GLA inh pH 4.5 = blocks human alpha-galactosidase A at pH 4.5. purified enzyme, 4-MU-alpha-Gal fluorescence, pH 4.5. 230,000 tested, under 10 active. P06280. AID 1467. activity change, negative = inhibition, % at 105 µM; inconclusive = small, poorly fitted or top-dose-only inhibition, or a rising curve; inactive = flat fitted curve, though single readings scatter; no compound was filed as active;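 further: 0% = full activity with enzyme and -100% = basal without enzyme; dose as in the result columns while the protocol names 77 µM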
miR-21 FLuc = raises the signal of a miR-21 reporter | AID 2288 | 340,000 tested, under 10 active | Potency, µM (highest dose often 38.3 µM), without a hit: at the highest dose reporter change, positive = more light | HeLa miR-21 FLuc reporter, luciferase, 48 h; active = well fitted rising curve with a large enough effect; inconclusive = small, poorly fitted or top-dose-only effect; inactive = no such curve, though single readings can be large or run the other way;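 further: % of control where 0% means no effect; miR-21 action dims this reporter so a rising signal means less miR-21 action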
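HeLa cells stably expressing CMV-driven firefly luciferase with a downstream miR-21 binding sequence, endogenously expressing miR-21, were treated with titrations (up to about 40uM final) for 48 hours at 37 degree Celsius. Luciferase luminescence was read after lysis.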
Rango-impB inh = Rango-importin beta binding inhibition. Rango CFP/YFP FRET sensor + importin beta, 45 min. Potency, µM (highest dose often 92.2 µM), for the others: top-dose inhibition of complex formation. actives 0.031% (n = 340,000). AID 540263; active = rising FRET ratio curve, often small or poorly fitted; inconclusive = mostly compound fluorescence or quenching in the first reads; inactive = flat curves in all reads;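 further: potency means the concentration at half of the fitted maximal effect; 0% = DMSO wells and 100% = buffer wells lacking importin beta; nearly all actives have a fitted effect of over 15% in size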
Target sequence (Q14974 whole entry, looked up): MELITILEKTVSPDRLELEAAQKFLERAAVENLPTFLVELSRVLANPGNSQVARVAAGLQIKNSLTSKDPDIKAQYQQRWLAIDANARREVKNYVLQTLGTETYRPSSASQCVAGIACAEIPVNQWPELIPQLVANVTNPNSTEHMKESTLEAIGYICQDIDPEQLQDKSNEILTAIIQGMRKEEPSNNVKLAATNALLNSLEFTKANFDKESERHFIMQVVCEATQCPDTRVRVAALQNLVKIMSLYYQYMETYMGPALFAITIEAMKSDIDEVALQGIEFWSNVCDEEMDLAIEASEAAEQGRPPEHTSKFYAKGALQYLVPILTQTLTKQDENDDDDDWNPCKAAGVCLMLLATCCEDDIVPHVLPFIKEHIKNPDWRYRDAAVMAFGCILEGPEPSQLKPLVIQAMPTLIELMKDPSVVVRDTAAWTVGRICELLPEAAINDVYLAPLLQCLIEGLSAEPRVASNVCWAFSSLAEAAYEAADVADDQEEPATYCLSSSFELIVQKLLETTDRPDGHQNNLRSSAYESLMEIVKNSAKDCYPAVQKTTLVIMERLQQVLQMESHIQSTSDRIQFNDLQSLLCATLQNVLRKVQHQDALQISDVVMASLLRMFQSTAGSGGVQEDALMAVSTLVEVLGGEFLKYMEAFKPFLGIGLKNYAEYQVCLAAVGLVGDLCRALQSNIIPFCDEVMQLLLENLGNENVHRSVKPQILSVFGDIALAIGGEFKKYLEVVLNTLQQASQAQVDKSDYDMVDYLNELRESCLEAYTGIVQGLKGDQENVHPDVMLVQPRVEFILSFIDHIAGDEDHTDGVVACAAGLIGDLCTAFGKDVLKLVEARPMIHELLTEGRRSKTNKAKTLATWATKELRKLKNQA
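FRET biosensor (snurportin 1 IBB flanked by EYFP and cerulean), 50 nM, with compound 5 min, then 0.125 microM importin beta in PBS, 1 mM DTT, 0.02% Tween-20, 0.1% BSA. CFP/YFP ratio read after 45 min at room temperature; pre-read flags interference.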
Starred values were filed as active, the others as inactive; ? = inconclusive; nt = not tested or not shown; & = joins results of further samples; [ ] = another dose, or the depositor's remark. Some of the compounds tested; rates above refer to the full screens.

SMILES	Rango dissoc inh	GLA inh pH 4.5	miR-21 FLuc	Rango-impB inh
CC(=O)Nc1ccc(CN2CCCC(CO)(Cc3cccc(Cl)c3)C2)cc1 (stereo unspecified)	9%	-4	-1%	-4.6%
O=Cc1c(SCCO)nc2ccccn2c1=O	29%	-1	-2%	-1.4%
CC(=O)c1cccc(NC(=O)N2CCCc3ccccc32)c1	-1%	9	-24%	-3.4%
CCCOc1ccc(C(=O)NCC(c2ccco2)N(C)C)cc1OC (stereo unspecified)	-21%	4	0%	-3.7%
COC(=O)c1ccccc1Oc1c(F)c(F)nc(N2CCOCC2)c1F	-13%	-11	-4%	1.7%
Cc1ccc(NC(=O)C(C)Sc2nnc(C3CC3)n2C2CC2)cc1S(=O)(=O)N1CCOCC1 (stereo unspecified)	2%	nt	nt	-0.4%
CN(C)CCN(Cc1ccco1)C(=O)c1cc2c(Cl)nc3ccccc3c2s1	3%	-1	-1%	0.2%
CC(C)COc1ccc(C(=O)Nc2ccccc2[N+](=O)[O-])cc1	3%	-14	-61%	-2.3%
CCC(=O)N1CCc2cc(Br)cc(S(=O)(=O)CCC(=O)NCCOC)c21	-1%	-2	-1%	-2.3%
CC1=C(C(=O)OCc2ccccc2)C(c2cccs2)NC(=O)N1CCCC(=O)O (stereo unspecified)	2%	3	-13%	1.1%
C=C(C)CC(c1ccccc1)N(C(C)=O)c1ccco1 (stereo unspecified)	-14%	-6	-3%	0.8%
COc1cccc(C(=O)N(CN2CCCC2=O)c2ccccc2OC)c1	10%	-6	-4%	2.2%
COc1ccc(C2CC(c3cccs3)=NN2C(=O)CSC2=NCCS2)cc1 (stereo unspecified)	-4%	nt	-15%	?
Cc1cc(C)c(C)c(C(=O)CSc2nnc(C)c(=O)[nH]2)c1C	nt	4	-1%	nt
CC(C)C(=O)Nc1ccc(S(=O)(=O)N2CCC(c3nc4ccccc4[nH]3)CC2)cc1	-19%	nt	nt	-2.9%
CCCC(CCC)C(=O)Nc1ccncc1	19%	0	0%	-1.9%
Cc1ccc(C)c(S(=O)(=O)N2CC(=O)N(CCc3ccccc3)C(=O)C2)c1	11%	0	-15%	1.2%
CC(=O)NCCSC(=O)c1ccc(F)cc1	3%	1	-12%	-0.4%
COc1ccc(CNC(=O)C(C#N)c2nc3ccccc3nc2N2CCN(C)CC2)cc1 (stereo unspecified)	?	-10	-10%	?
Fc1ccc(Nc2ncnc3sccc23)cc1	-17%	nt	-30%	?
Cc1cc(NC(=O)CSCc2ccc([N+](=O)[O-])cc2)no1	2%	2	-3%	-2.3%
CCC(C)[C@H]1CNC(=S)N1CCC12CC3CC(CC(C3)C1)C2 (stereo partly specified)	4%	1	0%	0.1%
CN(C)c1ccc(C(CC(=O)O)C(=O)O)cc1 (stereo unspecified)	0%	3	-11%	-1.3%
Cc1cc(C)cc(Oc2ccc(C(F)(F)F)cc2C#N)c1	0%	4	1%	-3.0%
CCc1cccc(C)c1NC(=O)C(c1ccccc1)N1CCC1=O (stereo unspecified)	11%	-18	-6%	?
SMILES	Rango dissoc inh	GLA inh pH 4.5	miR-21 FLuc	Rango-impB inh
Cc1nc(N2CCCCC2C)c2c(C)c(C(=O)Nc3ccccc3C(F)(F)F)sc2n1 (stereo unspecified)	13%	-2[21.1 µM]	-2%	0.8%
CCC(=O)Nc1nc2ccccc2n1CCN1CCOCC1	14%	6	-2%	1.3%
FC(F)(F)c1ccc(CN2C[C@@H]3C(c4ccc(Cl)nc4)C4(c5cccnc5)CC3(C4)[C@H]2c2ccccc2)cc1 (stereo partly specified)	-4%	?	7%	2.7%
CC(=O)c1ncnn1CC(=O)c1ccc(Cl)cc1Cl	0%	-7	-2%	-1.7%
CN(C)CCN(Cc1cc2cc3c(cc2nc1Cl)OCO3)C(=O)c1ccco1	3%	nt	-3%	-1.1%
CN(C)CCN(C(=O)c1ccco1)c1nc2cc3c(cc2s1)OCCO3	2%	nt	-49%	-4.7%
O=C1NC2(Nc3ccccc31)C(=O)Nc1ccccc12 (stereo unspecified)	?	5	-60%	?
COCCC(=O)N1CCC(Oc2ccc(C(=O)N3CCC[C@H]3CO)cc2)CC1	6%	nt	-2%	0.5%
O=C(c1ccco1)N1CCN(Cc2csc(-c3ccccc3Cl)n2)CC1	-1%	nt	-44%	-0.9%
O=C(COc1ccccc1)N1CCNC1=O	0%	-7	-7%	-3.0%
O=c1[nH]c(=O)n(C2CCCO2)cc1F (stereo unspecified)	-4%	-8	-2%	0.4%
COCCNC(=O)C(c1ccc(OC)cc1)N(Cc1ccco1)C(=O)CCC(=O)Nc1ccccn1 (stereo unspecified)	17%	nt	-1%	0.0%
Cc1cc(NC(=O)Nc2cccc(C(F)(F)F)c2)n(C)n1	3%	-7	-3%	-0.2%
C=CC(=O)N1C/C(=C/c2ccccc2)C(=O)/C(=C\c2ccccc2)C1	-9%	nt	nt	-3.9%
COc1ccc(NC(=O)N2CCCC2C(=O)Nc2ccc(C)c(Cl)c2)cc1 (stereo unspecified)	-8%	3	-5%	2.4%
COc1ccc(C(=O)NN=C2CCCC2)cc1OC	14%	nt	0%	-2.4%
C=CCn1c(SCC(=O)Nc2ccc(F)cc2F)nnc1-c1cnccn1	2%	nt	-40%	0.4%
CCOC(=O)CN1CCC(c2ccccc2)CC1	0%	-13	-1%	1.3%
Fc1ccc(CNc2ccccn2)cc1	1%	nt	-21%	4.4%
O=C1OCCN1C(=O)[C@H]1[C@H](c2ccccc2)C(c2ccc(F)cc2)=NN1c1ccccc1	?	-1	nt	?
Cc1cc(C)nc(N2CCC(C(=O)Nc3ccc4c(c3)CCC4)CC2)n1	4%	7	0%	-0.6%
COc1cccc(CN2CCC(N(CCc3ccccc3)Cc3ccccc3)CC2)c1OC	6%	3	2%	1.6%
O=C(CCN1C(=O)c2ccccc2C1=O)Nc1cccc(S(=O)(=O)NC2=NCCC2)c1	-2%	3	3%	0.2%
CCc1ccc(C(C(=O)NCc2ccc(OC)cc2)N(CCOC)C(=O)Cc2cccs2)cc1 (stereo unspecified)	-8%	-2	12%	0.6%
Cc1ccccc1-c1cccc([C@@H]2C[C@H]3[C@H](CON3C)CN2Cc2ccccc2)c1	-5%	nt	nt	-1.8%
SMILES	Rango dissoc inh	GLA inh pH 4.5	miR-21 FLuc	Rango-impB inh
COc1ccccc1C(=O)NC(=O)COC(=O)Cc1ccccc1[N+](=O)[O-]	-1%	nt	nt	-1.2%
Cn1cc(Cl)c(C(=O)OCC(=O)Nc2nc(-c3ccc(Br)cc3)cs2)n1	1%	3	-30%	2.5%
CC(=O)c1sc(NC(=O)c2ccc(COc3ccccc3Cl)o2)nc1C	4%	nt	-4%	0.3%
Cc1cc(C)c(C)c(S(=O)(=O)N2CCN(C(=O)CNC(=O)c3ccco3)CC2)c1C	-9%	nt	nt	-1.8%
COc1ccc(OCC(=O)O/N=C(\N)Cc2ccc(Cl)cc2Cl)cc1	1%	-1	-1%	-0.5%
CC(C)(C)C(=O)N1CCn2c1nc1ccccc12	-10%	6	-10%	2.7%
CCOc1ccc(CC(=O)NNC(=O)/C=C/C(=O)O)cc1	-9%	2	1%	0.7%
c1ccc2c(c1)OCC(c1csc3ncnc(N4CCCC4)c13)O2 (stereo unspecified)	1%	-1	11%	-0.9%
COc1ccc(Cl)cc1NC(=O)CN(C)C(=O)c1cccc2cccnc12	-15%	nt	nt	2.4%
COc1cc(/C=C/C(=O)OCC(=O)NC2CCS(=O)(=O)C2)ccc1O (stereo unspecified)	-16%	-16	4%	-3.5%
Nc1ccc2c(c1Br)Cc1ccccc1-2	0%	nt	nt	1.8%
CC(C)Cc1cc(C(=O)N2CCCC(CCC(=O)N(C)CCc3ccccn3)C2)no1 (stereo unspecified)	-1%	-14	-2%	-0.3%
CC1CCN(CCCCOc2cccc(C(C)C)c2)CC1	?	nt	-2%	0.0%
O=C(CN1CCN(Cc2ccc(Cl)cc2)CC1)N/N=C/C=C/c1ccccc1[N+](=O)[O-]	2%	-6	16%	0.5%
O=C(Nc1ccccc1)NC1CCN(Cc2c(F)cccc2Cl)CC1	-11%	-7	13%	0.5%
COc1ccc(C(=O)Cc2nnc(C)s2)cc1	3%	3	-59%	-1.5%
O=C(Nc1ccc2ccccc2c1)c1ccccc1F	-7%	nt	-38%	0.2%
Cc1ccc(S(=O)(=O)N2CCN(C(=O)c3ccc(OCc4c(C)noc4C)cc3)CC2)cc1	-14%	4	20%	0.5%
CC1(C)NS(=O)(=O)Oc2ccccc21	14%	nt	1%	0.4%
Cc1ccc(C(=O)NCCNC(=O)c2ccc(C)nc2)cc1	9%	nt	-2%	-3.0%
CCn1c(SCC(=O)Nc2c(C)n(C)n(-c3ccccc3)c2=O)nc2c1c(=O)n(C)c(=O)n2C	1%	-8	-1%	0.4%
COC(=O)c1c(Sc2ccccc2)c2ccccc2n1C	-7%	nt	2%	-0.4%
O=C(NCCc1ccccc1)c1ccccc1NS(=O)(=O)N1CCCC1	11%	-5	-34%	-1.8%
CCc1ccc(NC(=O)CCS(=O)(=O)c2ccc3c(c2)CCN3C(C)=O)cc1	0%	nt	1%&2%	1.8%
CCOC(=O)C1CCCN(/C=C2\SC(=S)N(CC)C2=O)C1 (stereo unspecified)	10%	0	-2%	0.4%

Pulled by structure from the list above, 3 records:
SMILES	Rango dissoc inh	GLA inh pH 4.5	miR-21 FLuc	Rango-impB inh
O=C(Nc1ccccc1)NC1CCN(Cc2c(F)cccc2Cl)CC1	-11%	-7	13%	0.5%
COC(=O)c1c(Sc2ccccc2)c2ccccc2n1C	-7%	nt	2%	-0.4%
CC1CCN(CCCCOc2cccc(C(C)C)c2)CC1	?	nt	-2%	0.0%

Compounds listed so far containing a nitro group on carbon (4):
SMILES	Rango dissoc inh	GLA inh pH 4.5	miR-21 FLuc	Rango-impB inh
CC(C)COc1ccc(C(=O)Nc2ccccc2[N+](=O)[O-])cc1	3%	-14	-61%	-2.3%
Cc1cc(NC(=O)CSCc2ccc([N+](=O)[O-])cc2)no1	2%	2	-3%	-2.3%
COc1ccccc1C(=O)NC(=O)COC(=O)Cc1ccccc1[N+](=O)[O-]	-1%	nt	nt	-1.2%
O=C(CN1CCN(Cc2ccc(Cl)cc2)CC1)N/N=C/C=C/c1ccccc1[N+](=O)[O-]	2%	-6	16%	0.5%

The results go on:
SMILES	Rango dissoc inh	GLA inh pH 4.5	miR-21 FLuc	Rango-impB inh
O=C(NCc1ccco1)c1ccc(-c2csnn2)cc1	11%	-7	-11%	4.4%
CC(CN1CCCCC1)OC(=O)/C=C/c1ccccc1 (stereo unspecified)	7%	nt	0%	-3.1%
CC(C)CCc1noc(CN(C)CC2CCN(Cc3ccccc3)CC2)n1	24%	-1	-5%	3.8%
CC(C)(C)OC(=O)NOCC(=O)N(CC(=O)c1ccccc1)Cc1ccccc1	-4%	nt	nt	0.6%
C#Cc1ccc([C@H]2C=C(C(=O)O)O[C@@H](OCc3ccc(CO)cc3)C2)cc1	-8%	7	-1%	0.6%
c1ccc(CSc2ccc(-c3ccccn3)nn2)cc1	5%	2	-11%	-7.0%
Cc1cc(/C=N/n2cnnc2)c(C)n1-c1ccccc1	20%	2	-28%	0.0%
CCOC(=O)c1cc(CC)sc1N	9%	-7	-6%	-0.3%
Cc1cc(C)c2c(c1)/C(=N/NC(=O)c1ccc(O)cc1)CCC2	29%	4	-33%	-2.4%
c1ccc(OCCN2C3=NCCN3c3ccccc32)cc1	21%	12	-12%	4.7%
Cc1ccc2c(c1)NC(=O)C(CC(=O)N(C)Cc1ccccc1)O2 (stereo unspecified)	16%	-8	-24%	-4.8%
Cn1nccc1C(=O)Nc1sc2c(c1C#N)CCCC2	-11%	nt	-32%	0.0%
CC(=O)NC1(c2cccc(F)c2)CCN(CC(=O)NC(C)C)CC1	18%	5	-3%	-0.2%
COc1ccccc1CCNC(=O)CNC(=O)Cc1cccc2ccccc12	4%	nt	3%	3.7%
O=C1/C(=C/c2ccc(F)cc2)SC(=S)N1NS(=O)(=O)c1ccccc1	2%	nt	-2%	-0.2%
C#CCOCCOCCOCCNc1nc(N2CCN(C(=O)CCCCCCCCCCNC(=O)[C@H](CCCCN)n3cc(CCO)nn3)CC2)nc(N2CCN(C(=O)CCCCCCCCCCNC(=O)[C@H](CCCCN)n3cc(CCO)nn3)CC2)n1	?	nt	nt	-0.4%
